ALR H2O2 inh – inhibitors of human ALR sulfhydryl oxidase, primary screen, biochemical, H2O2 detection, HRP-luminol luminescence, single point; FAD-linked sulfhydryl oxidase ALR (Homo sapiens), P55789; purified ALR, DTT oxidation; inhibition, % (concentration not given with the values); 290,000 tested, 3.8% active;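 active = mean and each replicate at 75% or more; inconclusive = only one of the two met; inactive = neither met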;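 note: stock transfer was 7.5 nL into about 7.5 µL; 0% = neutral wells and 100% = wells with inactivated enzyme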
Calb FLC – C. albicans growth inhibition with fluconazole, primary screen, CaCi-2 strain, Alamar Blue fluorescence | C. albicans CaCi-2 (fluconazole-resistant clinical isolate) + fluconazole, 48 h | growth inhibition, % (test concentration not listed) | AID 1979, 2009 | 300,000 tested, 0.57% active;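 active = most replicates above 75%; inconclusive = exactly half above 75%; inactive = most below 75%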;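 note: all wells also contain fluconazole at 8 µg/ml as a sub-toxic cotreatment; 0% = median of DMSO wells and 100% = median of geldanamycin control wells; wells of about 8 µL received 7.5 nL stock; the first replicate is given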
LANA-H2B inh – blockers of LANA interaction with H2A/H2B – biochemical, FP readout, HTS, primary screen; Protein LANA1 (Human herpesvirus 8 type P (isolate GK18)), Q9QR71; cell-free LANA-H2A/H2B peptide, fluorescence polarization; inhibition, % (concentration not given with the values); 320,000 tested, 0.6% active; in the data active = inhibition mostly above about 10%, no sharp cut-off; inactive = mostly below about 6.7%;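 note: stock transfer was 7.5 nL into about 10 µL; 0% = median of vehicle wells and 100% = median of positive control wells; one replicate is shown; the record names a cut of 25% in any replicate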
Target sequence (Q9QR71 whole entry, looked up): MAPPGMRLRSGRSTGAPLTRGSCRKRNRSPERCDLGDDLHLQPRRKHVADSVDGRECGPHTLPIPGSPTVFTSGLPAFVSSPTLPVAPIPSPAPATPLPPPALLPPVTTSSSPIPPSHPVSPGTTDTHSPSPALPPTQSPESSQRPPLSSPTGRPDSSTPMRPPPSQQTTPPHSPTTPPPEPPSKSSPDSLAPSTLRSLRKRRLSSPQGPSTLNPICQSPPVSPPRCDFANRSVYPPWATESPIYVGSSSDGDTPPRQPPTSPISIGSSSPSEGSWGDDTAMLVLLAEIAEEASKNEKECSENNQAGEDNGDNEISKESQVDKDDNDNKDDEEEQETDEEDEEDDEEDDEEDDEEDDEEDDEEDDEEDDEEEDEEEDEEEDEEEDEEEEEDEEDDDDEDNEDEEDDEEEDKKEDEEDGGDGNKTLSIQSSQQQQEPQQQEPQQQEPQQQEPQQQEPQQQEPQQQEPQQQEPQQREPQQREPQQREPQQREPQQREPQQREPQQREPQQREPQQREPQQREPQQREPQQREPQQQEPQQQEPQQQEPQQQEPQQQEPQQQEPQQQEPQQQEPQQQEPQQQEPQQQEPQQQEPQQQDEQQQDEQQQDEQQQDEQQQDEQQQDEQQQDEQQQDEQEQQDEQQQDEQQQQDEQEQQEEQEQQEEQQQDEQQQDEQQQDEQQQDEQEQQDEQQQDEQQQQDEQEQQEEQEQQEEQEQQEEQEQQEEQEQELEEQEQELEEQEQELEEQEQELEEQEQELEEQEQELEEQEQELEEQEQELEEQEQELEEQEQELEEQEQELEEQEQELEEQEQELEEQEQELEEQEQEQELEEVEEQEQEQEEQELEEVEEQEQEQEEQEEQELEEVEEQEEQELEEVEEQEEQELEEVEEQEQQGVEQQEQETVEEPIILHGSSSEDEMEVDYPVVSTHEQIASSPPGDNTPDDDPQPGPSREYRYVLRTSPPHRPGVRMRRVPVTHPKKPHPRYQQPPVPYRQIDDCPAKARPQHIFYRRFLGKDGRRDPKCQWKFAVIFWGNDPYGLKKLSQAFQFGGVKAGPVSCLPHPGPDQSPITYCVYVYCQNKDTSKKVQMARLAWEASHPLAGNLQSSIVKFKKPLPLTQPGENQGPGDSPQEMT
HNF4A DNA FP – change in binding of human HNF4A to DNA, primary screen, biochemical, fluorescence polarization, FITC-DNA | 360,000 tested, 0.3% active | Hepatocyte nuclear factor 4-alpha (Homo sapiens), P41235 | 1 h | AID 1224865, 2016 | activity change, % at 10 µM; in the data active = activity change above about 30%, passing the limit was not always enough;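 note: controls were the assay level and a saturating level of protein; the project sought stronger binding though the title names inhibitors; some compounds called inactive have numbers as strong as hits; positive values seem to mean higher polarization but the record does not say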
B2AR ag – beta2AR agonists driving receptor internalization, primary screen, cell-based, FAP fluorogen, flow cytometry | 340,000 tested, 0.43% active | Beta-2 adrenergic receptor (Homo sapiens), P07550 | response, % (no concentration beside the values) | Am2.2-beta2AR cells; reference of the scale not given here;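 active = response above a set limit, near 3 SD of response in nonfluorescent compounds, cut at about 42% in these data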;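 note: stock transfer was 100 nL into about 11 µL; a reference agonist was the positive control; negative values mostly stem from fluorescent compounds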
RanGTP-Imp inh – inhibitors of RanGTP-importin-beta interaction, primary screen, biochemical, FRET, CFP-Ran, YFP-importin-beta, homogeneous | cell-free CFP-Ran/YFP-importin-beta FRET ratio | inhibition, % (concentration not given with the values) | 300,000 tested, 1.1% active | AID 2216, 2009;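 active = most replicates above 15%; inconclusive = exactly half above 15%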;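 note: 0% = DMSO wells and 100% = Ran loaded with GDP instead of GTP; wells of about 40 µL received 100 nL stock; the first replicate is given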
Vif TR-FRET – inhibitors of Vif binding to APOBEC3G peptide, primary screen, biochemical, TR-FRET, GST-Vif 1-94, biotin-A3G peptide, dose response retest (AID 1117319); Virion infectivity factor (Human immunodeficiency virus type 1 group M subtype B (isolate …; TR-FRET GST-Vif / biotin-A3G peptide binding; higher % means a stronger effect; test concentration not given here; strong numbers were not always called active; inhibition, %, or IC50 in µM where a hit was titrated; 260,000 tested, 0.57% active;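 active = above the screen mean plus three standard deviations and confirmed in dose response; inconclusive = results disagree or hit not tested in dose response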;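 note: Vif residues 1-94 fused to GST binding biotinylated APOBEC3G peptide 110-148; 0% = full assay without inhibitor and 100% = GST in place of GST-Vif; retest series ran down from 100 µM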
* hit, by the source's call; u = inconclusive; x = not tested or not shown.

SMILES	ALR H2O2 inh	Calb FLC	LANA-H2B inh	HNF4A DNA FP	B2AR ag	RanGTP-Imp inh	Vif TR-FRET
Cc1ccc(C(=O)OCC(=O)NCCc2ccccc2)cc1S(=O)(=O)N1CCOCC1	-49	4	-5.9	1.1	-1	1.8	5%
Cc1ccc(NC(=O)Nc2cccs2)cc1	98*	-6	-7.5	3.3	-11	-3.9	5%
CCC(C)NC(=O)C1CCN(S(=O)(=O)c2ccc(Br)s2)CC1 (configuration not stated)	-5	-27	-1.1	2.1	-4	6.8	u
CCNc1nc(NC(C)C)nc(Oc2ccc(OCc3ccccc3)nn2)n1	x	-2	-1.3	-3.5	1	-0.6	-3%
O=C(CCS(=O)(=O)c1ccc(Br)cc1)Nc1cc(F)ccc1F	-5	5	-0.1	-4.1	-4	0.0	u
CC(=O)c1ccc(C(=O)N2CCc3c([nH]c4ccccc34)C2c2ccccn2)s1 (configuration not stated)	0	-1	0.9	1.9	-5	u	3%
COc1cc2c(cc1OC)C(C)N(C(=O)c1ccc(Cl)c(S(=O)(=O)N3CCCCC3)c1)CC2 (configuration not stated)	-2	x	0.7	3.7	2	0.4	x
CCN(CC(=O)Nc1c(F)cccc1F)C(=O)c1ccc2ccccc2n1	-5	3	-2.3	1.3	4	u	8%
Cc1ccc(N2CC(O)=C(c3nc4ccccc4c(=O)[nH]3)C2=N)cc1C	-16	-7	1.6	-1.2	-5	-1.7	-4%
Fc1ccc(-c2csc(-c3ccncc3)n2)cc1	4	10	-2.9	0.0	14	7.9	2%
Cn1c(=O)cc(SCC(=O)N2CCN(c3ccccc3)CC2)c2ccccc21	x	5	0.9	-0.2	-4	2.2	1%
COc1ccc(NC(=S)NN(C)C(=S)Nc2ccc(OC)cc2)cc1	99*	-13	-2.4	0.5	12	0.3	0%
O=C(Nc1ccc2nc(-c3ccc4nc[nH]c4c3)[nH]c2c1)c1cccs1	-4	1	-3.0	2.9	6	2.6	-3%
CCCS(=O)(=O)N1CCCC(C(=O)Oc2ccc(C)c(C)c2)C1 (configuration not stated)	-6	8	-4.0	-2.0	-1	-0.1	1%
CCOc1ccccc1Nc1nc(-c2cccnc2)cs1	43	11	-3.6	0.6	-6	-1.1	-5%
COc1ccc(Cc2nnc(NC(=O)CSc3ccc(C)cc3)s2)cc1OC	-6	-2	-1.6	0.7	-3	-1.6	-8%
Nc1ncc(-c2ccccc2)n1CC1CCCO1 (configuration not stated)	5	-6	-8.3	-3.0	9	-1.8	u
S=c1[nH]nc(C2CCCCC2)n1/N=C/c1ccc(Br)cc1	x	6	1.9	-3.0	-5	u	-2%
COc1ccc(N(CCC#N)C(=O)/C(C#N)=C/c2cccs2)cc1	-16	0	2.9	3.3	-10	-2.1	-6%
CCOc1ccc(/C=N/NC(=O)c2ccc(Cn3cc([N+](=O)[O-])cn3)o2)cc1	-3	-2	1.2	0.2	15	-0.6	5%

One compound at a time, as listed above. Order of screens: ALR H2O2 inh	Calb FLC	LANA-H2B inh	HNF4A DNA FP	B2AR ag	RanGTP-Imp inh	Vif TR-FRET
CCOc1ccc(/C=N/NC(=O)c2ccc(Cn3cc([N+](=O)[O-])cn3)o2)cc1 as listed: -3	-2	1.2	0.2	15	-0.6	5%
Nc1ncc(-c2ccccc2)n1CC1CCCO1 (configuration not stated) as listed: 5	-6	-8.3	-3.0	9	-1.8	u
CC(=O)c1ccc(C(=O)N2CCc3c([nH]c4ccccc34)C2c2ccccn2)s1 (configuration not stated) as listed: 0	-1	0.9	1.9	-5	u	3%
Cn1c(=O)cc(SCC(=O)N2CCN(c3ccccc3)CC2)c2ccccc21 as listed: x	5	0.9	-0.2	-4	2.2	1%
COc1ccc(N(CCC#N)C(=O)/C(C#N)=C/c2cccs2)cc1 as listed: -16	0	2.9	3.3	-10	-2.1	-6%

Remaining list, next part
SMILES	ALR H2O2 inh	Calb FLC	LANA-H2B inh	HNF4A DNA FP	B2AR ag	RanGTP-Imp inh	Vif TR-FRET
c1ccc2c(c1)ncn2-c1ccc(-c2ccnc(-c3ccncc3)n2)cc1	-3	11	-0.5	4.5	10	0.4	23%
CCCN(Cc1nnc(-c2ccccc2Cl)o1)C(=O)c1cccc(S(=O)(=O)N2CCOCC2)c1	2	-7	-1.6	6.0	4	1.1	3%
COc1cc(C2NC(=O)NC(C)=C2C(=O)OC2CCC(C)CC2)ccc1O (configuration not stated)	33	6	-2.6	0.1	15	8.2	x
CN(CC(=O)Nc1cc(Cl)cc(Cl)c1)Cc1cccs1	x	-5	-1.7	-0.7	3	0.4	3%
O=C(Nc1ccccc1Cl)NC1(C(=O)N2CCC(O)CC2)CCCCC1	-1	-4	0.4	1.2	12	-1.7	x
Cc1[nH][nH]c(=O)c1/C=N/N1CCOCC1	-7	16	-8.6	2.4	4	-0.3	-1%
Cc1ccc(S(=O)(=O)N(CC(=O)NCc2ccncc2)Cc2ccccc2F)cc1	-4	-6	5.3	0.6	7	-7.5	x
O=C(CN(CC1CCCO1)C(=O)CNS(=O)(=O)c1ccc(F)cc1)NCCc1ccccc1 (configuration not stated)	-3	-3	0.5	7.5	3	-0.6	0%
CCC(C)[C@H](NC(=O)NCc1ccc(Cl)cc1)C(=O)OC (some centres not stated)	2	-7	-1.2	-0.4	6	2.3	1%
O=C1CC(=C(c2ccccc2)c2ccccc2)C(=O)N1CCN1CCN(c2cccc(Cl)c2)CC1	-2	0	3.8	-2.1	0	6.0	20%
CCOC(=O)C1CCN(c2nc(-c3ccc(Br)cc3)nc3ccccc23)CC1	-22	-5	-5.4	-0.5	-2	-0.1	-3%
Cc1nnc2ccc(-c3ccc(NC(=O)c4ccco4)cc3)nn12	5	-18	-2.4	-13	-17	-1.8	-2%
CCN1C(=O)/C(=C\C(=O)c2cccs2)c2cc(Br)ccc21	-13	6	2.9	-3.1	3	-1.4	10%
O=C(Nc1ccc2c(c1)nc1n2CCCCC1)c1cc(S(=O)(=O)N2CCOCC2)ccc1Cl	7	-1	1.8	1.3	-3	0.7	16%
N/C(Cc1nc(-c2ccc(F)cc2)cs1)=N\O	4	-4	-2.3	1.9	6	9.1	x
Cc1ccc(S(=O)(=O)Nc2ccc(N3CCOCC3)cc2)cc1[N+](=O)[O-]	44	0	2.5	1.3	4	-0.1	-10%
CCCCC(=O)NCCNc1nc2c(c(=O)n(C)c(=O)n2C)n1Cc1ccc(F)cc1	3	1	1.3	-2.3	-8	-1.9	1%
COc1cc(/C=C/c2ccc3cccc([N+](=O)[O-])c3n2)ccc1OCC(=O)O	-5	6	-8.0	-3.0	2	4.3	u
CCOc1cc(S(=O)(=O)NCc2cccnc2)c(C)cc1C	-11	5	1.6	1.8	-3	1.9	-6%
CC(C)NS(=O)(=O)c1ccc(OCC(=O)Nc2ccc(F)cc2F)cc1	-4	2	1.6	-3.9	-6	0.6	-2%
CC1CCN(C(=O)CSc2ccc(-c3cccnc3)nn2)CC1	-1	x	-1.0	-0.4	-10	x	5%
Cn1c(SCC(=O)Nc2ccc3c(c2)OCCO3)nnc1-c1ccccn1	-2	-19	2.8	-5.0	-4	-3.0	11%
O=C(NCCc1ccccc1)C1CCCN(S(=O)(=O)c2cnc[nH]2)C1 (configuration not stated)	87*	-7	1.6	1.6	4	-2.0	-12%
COc1ccc(-c2csc(N(CC3CCCO3)C(=O)c3ccc(C)cc3)n2)cc1 (configuration not stated)	-14	-16	3.6	2.2	11	1.7	6%
COc1ccc(-c2oc3ccccc3c2C(=O)OCc2ccccc2)cc1	0	1	-0.9	1.1	0	-3.0	x
C#CCOCCOCCOCCNc1nc(N2CCN(C(=O)[C@H](CO)n3cc([C@@H](N)C(C)C)nn3)CC2)nc(N2CCN(C(=O)[C@H](CCCCN)n3cc([C@@H](N)[C@H](C)CC)nn3)CC2)n1	1	x	-8.0	17	-3	x	x
O=C(NCC1CC1)Nc1cccc(Cl)c1	-2	8	-6.2	-0.1	-3	-0.5	-3%
CCOP(=O)(OCC)c1ccc2c(c1)C(=O)c1ccccc1CC2	-3	x	1.1	-0.3	1	x	x
O=C(COC(=O)CNC(=O)c1ccccc1Cl)NC1CCCC1	-5	x	1.8	-1.5	7	x	3%
CC1=C/C(=N\NC(=O)c2cccs2)CC(C)(C)C1	-5	-36	5.5	0.0	-12	3.4	u
CCN(CC(=O)Nc1ccc(NC(C)=O)cc1)C(=O)c1ccccc1CCc1ccccc1	x	4	x	0.1	7	-3.9	0%
CCCCC1(O)CC(C(F)(F)F)=NN1C(=O)COc1ccccc1 (configuration not stated)	x	-38	-3.6	-0.7	-13	1.1	1%
O=C(CSc1nnnn1C1CCCCC1)Nc1nc2c(s1)CCCC2	23	-7	-0.6	2.5	-4	-1.8	-1%
COc1ccc(C2c3ccc(O)cc3Oc3ncn(CCN4CCOCC4)c(=N)c32)cc1OC (configuration not stated)	x	3	23	-70	-8	1.6	24%
CCOC(=O)C1CCCc2c1[nH]c1c(C(=O)O)cccc21 (configuration not stated)	-9	1	2.5	4.3	7	u	-1%
Cc1nnc(SCC(=O)Nc2ccc([N+](=O)[O-])cc2)n1CC1CCCO1 (configuration not stated)	-12	-3	0.2	-1.9	-4	-3.0	0%
O=C(CSc1nc2ccccc2c(=O)n1CCCN1CCOCC1)Nc1ccc(F)c(Cl)c1	-4	x	-3.9	1.9	8	x	x
CNc1nc2c(c(=O)[nH]c(=O)n2C)n1CCOC	x	3	x	x	x	7.3	8%
COc1ccc(Cc2c(Cl)ncnc2Cl)cc1	-4	16	3.7	-2.8	-1	2.3	1%
CCOc1cc(/C=C2\SC(=S)N(NC(=O)c3cccnc3)C2=O)ccc1O	99*	39	-2.8	49*	5	4.0	19%
Brc1ccc(CSc2ccc3nnc(-c4cccnc4)n3n2)cc1	1	-12	-4.2	-0.7	16	4.5	-9%
O=C(NCCc1ccccn1)C(F)(F)C(F)(F)C(F)(F)C(F)(F)C(F)(F)C(F)(F)C(F)(F)C(F)F	-6	0	2.4	0.4	-5	u	8%
CN1CCN(NC(=O)c2cn(-c3ccccc3)nc2-c2cccs2)CC1	28	10	-13	-2.2	-14	0.0	4%
COc1cccc(C(=O)Nc2cccnc2)c1	-1	-8	-10	0.1	-3	0.5	-1%
CC(C(=O)NCc1ccc2c(c1)OCO2)c1ccc([N+](=O)[O-])cc1 (configuration not stated)	-5	-50	1.7	-0.2	-4	1.2	6%
O=C(COC(=O)c1ncc(Cl)c(Cl)c1Cl)NC(=O)NCc1ccccc1	-31	-5	1.5	4.5	0	-1.7	x
COc1cc(COCC(O)CN2CCN(Cc3ccc4c(c3)OCO4)CC2)cc(OC)c1OC (configuration not stated)	-9	-11	0.5	0.6	-16	0.5	x
Cc1ccc(NC(=O)c2cc(=O)[nH]c3ccc(S(=O)(=O)N4CCOCC4)cc23)cc1	-1	x	5.5	1.5	0	x	-3%
CCc1c(C)sc(NC(=O)c2cccs2)c1C#N	-14	56	-6.5	17	-5	0.7	-24%
